Rango-impB inh = Rango-importin beta binding inhibition; Rango CFP/YFP FRET sensor + importin beta, 45 min; Potency, µM (titrated, usually from 92.2 µM), inactives show at the highest dose inhibition of complex formation; actives 0.031% (n = 340,000); active = rising FRET ratio curve, often small or poorly fitted; inconclusive = mostly compound fluorescence or quenching in the first reads; inactive = flat curves in all reads;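 also: potency is read from the fitted curve at half-maximal effect; 0% = DMSO wells and 100% = buffer wells lacking importin beta; nearly all actives have a fitted effect of over 15% in size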
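FRET biosensor Rango (snurportin 1 IBB between N-terminal EYFP and C-terminal Cerulean), 50 nM in PBS/1 mM DTT/0.02% Tween-20/0.1% BSA, preincubated 5 min RT with compound; 0.125 microM importin beta added, 45 min RT, CFP/YFP FRET ratio read.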
Rango release inh = inhibitors of RanGTP-induced Rango-importin beta complex dissociation. Biochemical FRET Rango-importin beta, RanGTP-induced dissociation. Potency, µM (titrated, usually from 46.1 µM), inactives show at the top dose activity change, negative = inhibition. actives 0.071% (n = 340,000); active means falling FRET ratio curve, often poorly fitted, with flat reads before Ran was added; inconclusive means other falling curves, or compound fluorescence or quenching; inactive means flat or rising ratio curve;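 also: potency is read from the fitted curve at half-maximal effect; % of control where 0% means no effect; nearly all actives have a fitted effect of over 45% in size; -100% = wells without RanGTP and RCC1; the record marks most hits as doubtful in a second field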
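Two FRET readings bracket the reaction: one 5 min after compound meets Rango–importin beta, another 45 min after RanGTP-RCC1 (0.6 uM Ran, 0.2 uM RCC1, 2 mM GTP) is added. Only the second defines inhibition.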
miR-21 FLuc = miR-21 reporter, rising signal; AID 2288; Potency, µM (doses to about 38.3 µM), for the others: at the top dose reporter change, positive = more light; HeLa miR-21 FLuc reporter, luciferase, 48 h; 340,000 tested, under 10 active; active = well fitted rising curve with a large enough effect; inconclusive = small, poorly fitted or top-dose-only effect; inactive = no such curve, though single readings can be large or run the other way;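 also: % of control where 0% means no effect; miR-21 action dims this reporter so a rising signal means less miR-21 action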
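Luminescence from a firefly luciferase reporter carrying a miR-21 binding site downstream, stably expressed under a CMV promoter in HeLa cells that make miR-21 endogenously, reports miRNA modulation after 48 h compound exposure up to approximately 40uM final.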
GLA inh pH 4.5 = alpha-galactosidase A (human) inhibition, pH 4.5; P06280; purified enzyme, 4-MU-alpha-Gal fluorescence, pH 4.5; activity change, negative = inhibition, % at 105 µM; 230,000 tested, under 10 active; AID 1467; inconclusive = small, poorly fitted or top-dose-only inhibition, or a rising curve; inactive = flat fitted curve, though single readings scatter; no compound was filed as active;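 also: 0% = full activity with enzyme and -100% = basal without enzyme; dose as in the result columns while the protocol names 77 µM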
Target sequence (P06280 whole entry, looked up): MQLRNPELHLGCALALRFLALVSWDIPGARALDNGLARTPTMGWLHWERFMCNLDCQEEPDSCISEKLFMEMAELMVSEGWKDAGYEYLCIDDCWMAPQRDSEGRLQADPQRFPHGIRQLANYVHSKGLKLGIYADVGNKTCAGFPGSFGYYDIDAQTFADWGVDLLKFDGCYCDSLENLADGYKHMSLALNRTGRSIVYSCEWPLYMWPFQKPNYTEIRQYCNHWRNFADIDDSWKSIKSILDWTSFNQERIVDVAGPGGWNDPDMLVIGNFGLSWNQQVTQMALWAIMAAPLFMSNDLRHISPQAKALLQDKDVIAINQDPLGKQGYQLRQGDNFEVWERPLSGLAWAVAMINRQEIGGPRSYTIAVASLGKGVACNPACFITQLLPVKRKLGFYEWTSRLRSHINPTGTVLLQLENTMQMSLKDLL
Numbers without * were called inactive; ? = inconclusive; . = no result given; & = joins results of further samples. The list is partial (hit frequency here may not be typical).

Each structure is followed by: miR-21 FLuc	Rango-impB inh	GLA inh pH 4.5	Rango release inh
> COc1cc(OC)cc(C(=O)NC(C(=O)Nc2ccc(N3CCOCC3)cc2)C(C)C)c1 (stereo not given)
→ .	-0.5%	.	-7%
> Cc1c(O)nc(SCC(=O)Nc2ccc3c4c(cccc24)CC3)n(-c2ccccc2)c1=O
→ -1%	3.3%	-11	0%
> Cc1cc(F)ccc1N1CCC(N2CCN(CCC(C)C)C(CCO)C2)CC1 (stereo not given)
→ 7%	-1.9%	-3	-3%
> CCOCN(C(=O)Cn1cnc2ccccc21)c1c(C)cccc1CC
→ -3%	-0.5%	2	7%
> COC(=O)c1cnn2c3c(c(C)nc12)CCCC3
→ -25%	1.9%	-1	-7%
> O=C(CSc1nnc(Cc2ccccc2)o1)NC1CCCCC1
→ -3%	2.2%	1	3%
> CC1CN(c2nc3ccccc3nc2SCC(=O)Nc2cccc(C(F)(F)F)c2)CC(C)O1 (stereo not given)
→ .	4.3%	.	2%
> Clc1ccc2c(c1)C1=C(C(c3ccncc3)O2)C(c2ccc(Br)cc2)n2ncnc2N1 (stereo not given)
→ 17%	?	-2	-14%
> COc1ccc(OC)c2[nH]c(=O)c(CCNS(=O)(=O)c3ccc(Cl)cc3)cc12
→ -6%	0.0%	-28	-3%
> CCN(CC)S(=O)(=O)c1ccc(/C=C/C(=O)Nc2cccc(F)c2)cc1
→ -3%	1.1%	-11	0%
> CC(c1ccccc1)N1C(=O)c2ccc(C(=O)NCc3cccnc3)cc2C1=O (stereo not given)
→ 0%	0.3%	.	-1%
> CCC(C)(C)NC(=O)Cc1ccccc1OC
→ 2%	-1.2%	1	-6%
> CC(=O)Nc1ccc(NC(=O)C(C)OC(=O)COc2ccc(Nc3ccccc3)cc2)cc1 (stereo not given)
→ .	-1.6%	.	-15%
> COc1ccc(C(=O)OCC(=O)NC(=O)CCSc2ccccc2)cc1
→ -13%	-0.1%	9	-2%
> CCC(C)NC(=O)CN(c1cc(C)cc(C)c1)S(=O)(=O)c1c(C)[nH]c(=O)[nH]c1=O (stereo not given)
→ 0%	-2.1%	-10	2%
> Cc1csc(SCC(=O)c2ccc(S(=O)(=O)N3CCOCC3)cc2)n1
→ -5%	5.1%	-5	-11%
> Cc1ccc(C)c(N2CCN(C(=O)CC3Sc4ccccc4NC3=O)CC2)c1 (stereo not given)
→ 17%	0.4%	-3	-1%
> O=C(NCc1nc(-c2ccc(Cl)cc2)no1)c1ccco1
→ -9%	4.5%	.	-9%
> O=C(COC(=O)CSc1ccc(Cl)cc1)NCCc1ccccc1
→ .	-4.6%	.	8%
> Cc1cc(C)n(/N=C\c2c(O)ccc3ccccc23)c(=O)c1C(N)=O
→ -1%	?	2	-30%
> CCCCCCSc1ccc(-c2nc3ccc(C)cn3c2NCc2ccccc2)cc1
→ .	?	.	?
> CCCOc1ccc(C(=O)Nc2ccc(C)cc2[N+](=O)[O-])cc1
→ -15%	-1.2%	-24	1%
> COc1ccc(N(CC(=O)NCc2ccc3c(c2)OCO3)S(=O)(=O)c2c(C)nn(C)c2C)cc1
→ 0%	-0.1%	-2	-4%
> Cc1ccc(C(=O)N/C(=C\C=C\c2ccccc2)C(=O)NCc2ccco2)cc1
→ 18%	?	-8	-1%
> O=C(O)c1ccccc1NC(=S)NC(=O)c1sc2ccccc2c1Cl
→ -20%	2.6%	0	6%
> COc1cc(C(=O)N/C(=C\c2cn(C)c3ccccc23)C(=O)NCCCN2CCOCC2)cc(OC)c1OC
→ -3%	-3.2%	.	10%
> CC(C)(C)OC(=O)[C@H](Cc1ccccc1)NC(=O)c1nc[nH]c1C(=O)N[C@@H](CCCCN)C(=O)OC(C)(C)C
→ .	6.1%	.	-11%
> CCn1nc(CC(=O)Nc2nnc(CC(=O)N3CCOCC3)s2)c2ccccc2c1=O
→ -5%	2.2%	-8	?
> CCC(C)(C)NC(=O)C(c1ccc(C)o1)N(C(=O)c1csnn1)c1cccc(F)c1 (stereo not given)
→ -3%	-0.8%	3	-1%
> O=C(c1cncc(Br)c1)N1CCc2ccccc2C1
→ 20%	-1.1%	-3	-16%

Entries of single compounds from above:
`CC(C)(C)OC(=O)[C@H](Cc1ccccc1)NC(=O)c1nc[nH]c1C(=O)N[C@@H](CCCCN)C(=O)OC(C)(C)C` is listed with miR-21 FLuc = .; Rango-impB inh = 6.1%; GLA inh pH 4.5 = .; Rango release inh = -11%
`CCCCCCSc1ccc(-c2nc3ccc(C)cn3c2NCc2ccccc2)cc1` is listed with miR-21 FLuc = .; Rango-impB inh = ?; GLA inh pH 4.5 = .; Rango release inh = ?

Continuation:
Each structure is followed by: miR-21 FLuc	Rango-impB inh	GLA inh pH 4.5	Rango release inh
> CCC1CCCCN1C(=O)CCc1nnc(Cc2c[nH]c3ccccc23)o1 (stereo not given)
→ -4%	-1.0%	6	0%
> Cc1nc2c(sc3nc4c(cc32)COC(C)(C)C4)c(=O)o1
→ -10%	0.5%	1	-11%
> COC(=O)/C(=C\Nc1ccc(Cl)c2ccccc12)c1ncc(C(F)(F)F)cc1Cl
→ -1%	1.7%	2	-3%
> CCOC(=O)C1=C(C)Nc2ccccc2N=C1NC(=O)c1cccc(S(=O)(=O)N(C)C)c1
→ -8%	0.3%	-6	-17%
> COc1ccc(-c2cc(-c3ccccc3O)[nH]n2)cc1
→ -14%	0.5%	0	29%
> O=C(NCCSc1ccccc1)c1ccco1
→ -46%	-2.9%	2	20%
> CC(=O)C1=C(O)C(=O)N(c2ccc(O)cc2)C1c1ccccc1 (stereo not given)
→ -2%	-3.3%	.	-16%
> Oc1ccccc1-c1nc(NCc2ccco2)c2ccccc2n1
→ -16%	11%	0	24%
> Fc1cccc2sc(Nc3nc4ccccc4s3)nc12
→ -58%	?	4	-7%
> CCN(CC(=O)Nc1ccccc1C(=O)OC)S(=O)(=O)c1ccc(OC)cc1
→ -1%	-0.8%	-7	0%
> CC(C)Oc1ccc(CNC(=O)c2cc(S(=O)(=O)N3CCOCC3)cn2C)cc1
→ -5%	0.2%	.	23%
> COc1ccc(NC(=S)N(CCCN2CCCC(C)C2)Cc2cccs2)cc1 (stereo not given)
→ 4%	-1.1%	-8	-16%
> CC(C)CC(CC(C)C)=NNC(=O)c1ccc2c(c1)OCO2
→ -17%	5.3%	-4	2%
> CCS(=O)(=O)NCC(c1ccco1)N1CCN(c2ccccc2)CC1 (stereo not given)
→ -3%&-5%	-0.6%	4	12%
> Cn1c(SCC(=O)NNC(=O)Cc2ccccc2)nc2ccccc2c1=O
→ 6%	3.8%	6	29%
> CCOC(=O)c1c(NC(=O)C(=O)N/N=C(\C)c2ccc(OC)cc2)sc2c1CCCCC2
→ -9%	-0.7%	-6	17%
> CC1CC(C)(C)CC2(C1)NC(=O)N(CC(=O)NCCc1ccc3c(c1)OCCO3)C2=O (stereo not given)
→ -2%	0.1%	9	4%
> COc1cc(OC)cc(C(=O)Nc2ccc(-n3cnnn3)c(C)c2)c1
→ -54%	-0.3%	-1	-1%
> CCCCC(=O)Nc1ccc(N2CCN(S(C)(=O)=O)CC2)cc1
→ -12%	0.6%	1	1%
> O=C(NC1CC1)C1=C[C@@H](c2ccccc2)C[C@@H](OCCCCO)O1
→ -9%	-5.0%	-1	-17%
> CC1CCN(S(=O)(=O)c2ccc3c4c2CC(=O)N4CC(C)S3)CC1 (stereo not given)
→ 5%	?	.	-11%
> Cc1nc2c(o1)CCc1ccccc1C2N1CCN(C)CC1 (stereo not given)
→ -1%&2%	1.5%&-0.9%&-0.6%	-8&-1	0%&12%&0%
> O=C(CN1C(=O)NC(Cc2ccccc2)C1=O)Nc1ccccc1 (stereo not given)
→ -27%	3.9%	2	10%
> O=C(O)CNc1ccc(S(=O)(=O)C(F)(F)F)cc1[N+](=O)[O-]
→ -8%	1.2%	3	2%
> O=C(CN1CCC(n2nnc3cc(C(F)(F)F)ccc32)CC1)Nc1ccc2c(c1)CCC2
→ 2%	1.0%	-8	12%
> O=C(NCCN1CCN(C(=O)c2ccc([N+](=O)[O-])cc2)CC1)C(=O)NCc1ccccc1
→ 1%	3.3%	.	-6%
> CCOC(=O)c1ccc(S(=O)(=O)N2CCN(C3CCCC3)CC2)cc1
→ 0%	-2.1%	0	8%
> COc1ccccc1C(=O)N/N=C(\C)c1ccc(NC(=O)C2CC2)cc1
→ -7%	-0.1%	-3	6%
> COCCCN1C(=O)c2ccc(C(=O)Nc3cccc(OC)c3)cc2C1=O
→ -14%	1.9%	5	1%
> Cc1ccccc1NCC(=O)Nc1cc(S(=O)(=O)N2CCCCC2)ccc1C
→ .	-3.1%	.	-3%
> COc1cc(C(=O)NCC(c2ccccc2)N(C)C)ccc1OCC(=O)N1CCOCC1 (stereo not given)
→ -1%	4.4%	6	6%
> CCN1CCN(C(=O)NS(=O)(=O)c2ccc(C)cc2)CC1
→ 0%	?	.	12%
> OCCSc1nc(-c2ccccc2)nc2c1CCC2
→ -7%	0.4%	-6	-11%
> O=C(NC1CC1)C1CCN(S(=O)(=O)c2cc(Cl)ccc2Cl)CC1
→ -1%	2.3%	-2	17%
> CCCN(CCC)CCNC(=O)c1cn(C)c(=O)c2c1c1ccccc1n2C
→ 1%	-1.4%	.	-13%
> CCOC(=O)c1[nH]c2cc3c(cc2c1NC(=O)CN1CCC2(CC1)OCCO2)OCO3
→ 3%	1.4%	-4	-13%
> Cn1c(C(=O)NCCCN2CCN(c3ccccc3F)CC2)cc2c(=O)[nH]c3ccccc3c21
→ -5%	2.7%	0	0%
> C[C@H](CO)N1C[C@H](C)[C@@H](CN(C)C(=O)Nc2ccc(F)cc2)Oc2ccc(NS(C)(=O)=O)cc2C1=O
→ .	0.5%	.	-13%
> Cc1ccc(S(=O)(=O)N2CCCCC2)cc1NC(=O)COC(=O)c1ccc(O)cc1
→ 1%	-2.1%	10	?
> O=C(c1cc(C2CC2)nn1-c1ccccc1)N1CCN(c2ccc(O)cc2)CC1
→ .	-0.5%	.	13%
> CCN(CC)S(=O)(=O)c1cccc(-c2nnc(SCC(=O)NC)n2CCc2ccccc2)c1
→ -4%	-0.1%	-3	-10%
> COc1ccc(CCN(C)C(=O)COC(=O)/C=C/c2ccc(C)o2)cc1OC
→ .	0.7%	.	-1%
> CCCCNC(=O)Cn1cnc([N+](=O)[O-])n1
→ 0%	4.9%	5	-4%
> CCCCCC1CCC(C(=O)N2CCOCC2)CC1 (stereo not given)
→ 0%	-3.3%	.	?
> Cc1ccc(-n2nnnc2SCC(=O)NCC2(N3CCCCC3)CCCCC2)c(C)c1
→ .	-2.0%	.	16%
> Cc1c(C)c2ccc(OCC(=O)NCc3ccccn3)cc2oc1=O
→ 5%	0.3%	.	32%
> CCN(CC)c1ccc2cc(C(=O)Nc3cccnc3N3CCOCC3)c(=O)oc2c1
→ -19%	.	-7	.
> Cc1ccccc1OC(=O)Cn1c(C(F)(F)F)nc2ccccc21
→ -2%	-0.5%	-1	12%
> N/C(=N\OC(=O)CCC(=O)O)c1ncc(C(F)(F)F)cc1Cl
→ 2%	?	1	5%
> OCC1(CCc2ccccc2)CCN(Cc2cnc(N3CCCC3)s2)CC1
→ -10%	0.4%	-1	17%
> O=S(=O)(c1ccccc1)N1CCN(c2nc3ccccc3s2)CC1
→ -12%	0.1%	0	1%
> O=C(CCCN1C(=O)c2ccccc2C1=O)N1CCOCC1
→ -3%	-2.6%	5	-6%
> Cc1ccc(S(=O)(=O)N2CCC(=O)N(CCOC(=O)Nc3ccc(C)c(C)c3)CC2)cc1
→ 0%	4.6%	-2&-3	-3%
> COc1cccc(/C=N/NC(=O)c2ccc(COc3ccc(Cl)cc3Cl)o2)c1
→ -3%	-3.6%	-4	1%
> Nc1ccccc1-n1cccc1
→ -3%	?	-8	-22%
> Cc1ccc(C(=O)NCc2ccc(Cl)c(Cl)c2)o1
→ -3%	-0.5%	2	0%
> CC1(C)CC(NC(=O)Nc2ccc([N+](=O)[O-])cc2)CC(C)(C)N1
→ 0%	1.1%	-17	0%
> Cc1ccc(C(=O)CC(SCC(=O)O)c2ccc([N+](=O)[O-])cc2)cc1 (stereo not given)
→ -12%	0.9%	-5	12%
> CCCCOC(=O)Nc1nc(CC(=O)OCC)cs1
→ -14%	7.8%	-6	25%

Source: PubChem
